Assay outcomes as filed in PubChem.
VACV E9 pol inh: vaccinia E9 polymerase processive synthesis inhibitors, primary screen, biochemical, absorbance; in vitro processive DNA synthesis, absorbance read-out; stronger effect = lower value; some inactives read as strong as hits; normalized absorbance, % (concentration not given with the values); 46,000 tested, 0.94% active; AID 493162, 2011;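 active means replicate mean up to 90% and picked by the depositor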;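 further: 100% = median of the test wells of a plate; 100 nL library stock went into each well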
Starred values were filed as active, the others as inactive. Only part of the results is shown; rates above refer to the full screens.

SMILES | VACV E9 pol inh
Cc1ccc2c(c1)-c1c(cnn1CC(=O)NCCCN1C(C)CCCC1C)CO2 (centres undefined) | 101
CC(=O)N1CCN(c2ccc(NC(=O)COc3ccc4ccccc4c3)cc2)CC1 | 105
CCOC(=O)C1=C(C)NC2=C(C(=O)CC(C)(C)C2)C1C (centres undefined) | 101
CC(C)CCN1CC(C(=O)NC2CCCCCC2)CC1=O (centres undefined) | 98
NNC(=O)CS(=O)(=O)c1ccc(C(F)(F)F)cn1 | 109
COc1ccc2c(c1)OC13CCCCC1C2C(C(=O)c1ccccc1)C(=O)N3 (centres undefined) | 97
CCC(C)c1ccc(N=C(NO)c2ccc(OC)cc2)cc1 (centres undefined) | 94
CC1CC(C)CN(C(c2ccccc2)c2sc3ncnn3c2O)C1 (centres undefined) | 87
COC(=O)c1c(CC=C(C)C)c(C)nc2ccccc12 | 100
CCN1CCN(C(=O)c2ccc(Br)o2)CC1 | 97
Cc1cccc(C)c1NC(=O)CC(C(=O)O)N(C)C (centres undefined) | 98
O=C(CSCc1ccc(Cl)cc1)c1ccccc1F | 97
COC(=O)CSc1ccc2c(N)c(C(=O)OC)sc2c1 | 94
CCOC(=O)c1oc2ccccc2c1CBr | 98
O=c1[nH]ncc(N2CCCCCC2)c1Cl | 100
CCOc1ccc(OCCBr)cc1 | 102
CC1(C)OC(=O)N(c2ccccc2)/C1=C\C[N+](C)(C)C | 101
Clc1ccc(OCCN2CCNCC2)cc1 | 100
CC1OC(C)C(C)C(c2ccccc2O)O1 (centres undefined) | 103
COC(=O)C1=NNC(c2ccccc2)(c2ccccc2)C1 | 100
COC(=O)CSC1=C(C#N)C(c2cccs2)C(C(=O)Nc2ccccc2C)=C(C)N1 (centres undefined) | 101
CC1=CC=C(N(CC2=NCCN2)c2cccc(O)c2)CC1 | 100
CC(C)Cc1ccc(C(C)c2nc(-c3cccs3)no2)cc1 (centres undefined) | 100
CC1CN(C(=O)C(C)C)CC(C)O1 (centres undefined) | 99
CC(C)c1ccc(CN(C(=O)c2nc(S(C)(=O)=O)ncc2Cl)C2CCS(=O)(=O)C2)cc1 (centres undefined) | 92
Cc1cc(C)c2c3c(sc2n1)C(=O)N(c1ccccc1C)CC(=O)N3 | 103
COc1ccc(/C=C/C(=O)Nc2ccc(-n3nncc3-c3ccc(OC)c(OC)c3)cc2)cc1OC | 99
O=C(NCc1cccc(C(F)(F)F)c1)c1ccc[nH]1 | 101
O=C1C=CC(=O)N1c1ccc(S(=O)(=O)Nc2ccc(C(F)(F)F)cc2)cc1 | 93
O=C(O)Cn1ncc2c3ccccc3n(Cc3cccc(Cl)c3)c2c1=O | 93
Cc1ccc(C(=O)OCC(=O)NCc2ccccc2Cl)s1 | 109
CC(C)C(=O)Nc1ccc(Sc2ccc(F)cc2)cc1 | 88
CCOC(=O)NC(=O)c1cn(CCc2ccncc2)c(=O)[nH]c1=O | 104
Cc1cccc(NC(=O)CSc2nsc(SCC(=O)Nc3cccc(C)c3)c2C#N)c1 | 92
O=C(NCCCn1ccnc1)c1cc2nc(-c3ccccc3)cc(-c3ccccc3)n2n1 | 94
COc1ccc(CCN2C(=O)CSC2=NC2CC2)cc1OC | 115
CCOc1ccc(CNC(=O)COc2cc(=O)n(CC)c3ccccc23)cc1 | 101
CCOC(=O)c1cnn(-c2ccccc2)c1-c1ccccc1 | 92
CC(Oc1ccc(Cl)cc1Cl)C(=O)N1CCC(C(N)=O)CC1 (centres undefined) | 103
CCc1cc2c(SCC(=O)c3ccc(Cl)s3)ncnc2s1 | 100
COc1ccc2c(Sc3ccc(Cl)cc3)c(C(=O)NCCCN3CCN(C)CC3)[nH]c2c1 | 88
CC1CCCN(CCCNC(=O)CCn2nc(-c3ccccc3)ccc2=O)C1 (centres undefined) | 101
Clc1cccc(NCn2nnc3ccccc32)c1Cl | 101
Cc1nc(N2CCCCC2)c2c(C)c(C(=O)Nc3cccc(C(F)(F)F)c3)sc2n1 | 110
CC(O)c1nc2ccccc2n1Cc1ccccc1F (centres undefined) | 117
Cc1cc2ccccc2c(=O)n1CC(=O)NCC(=O)Nc1nc2ccccc2s1 | 109
FC(F)(F)c1ccccc1NC(=S)Nc1ccc(-c2csnn2)cc1 | 92
CC(C)(C)OC(=O)C[n+]1cccc(C(N)=O)c1 | 100
COc1ccc2c(-c3ccc(Cl)cc3)c(C)oc2c1 | 102
O=C(COC(=O)COc1ccc(Cl)cc1)Nc1ccc(Br)cc1F | 106

The list continues.
SMILES | VACV E9 pol inh
Cc1nc(-c2ccccc2)sc1C(=O)Sc1ccc(Cl)cc1 | 97
CCN(CC)S(=O)(=O)c1ccc(OC)cc1 | 101
O=C(SCC(=O)N1CCc2ccccc21)c1ccccc1 | 99
FC(F)(F)c1cc(N2CCCCC2)c2cccc(Cl)c2n1 | 109
CC(C)c1ccc(N(C)C(=O)Cc2c(C(=O)O)n(C)c3ccccc23)cc1 | 93
CCN(CC)C(=O)c1ccc(OC(C)=O)cc1 | 100
O=c1[nH]cnc2c1sc1nc(N3CCOCC3)c3c(c12)CCCC3 | 100
CSc1nc(C)c(-c2cc3ccccn3c2)cc1C#N | 97
O=S(=O)(c1ccc(Cl)s1)N1CCN(Cc2ccccc2)CC1 | 105
c1ccc(-n2cccc2CNC2CCCCC2)cc1 | 100
O=C(Cn1c(=O)n(-c2cccc(C(F)(F)F)c2)c(=O)c2sccc21)N1CCCc2ccccc21 | 97
COc1ccccc1C1CCN(S(=O)(=O)c2ccc(-c3csc(C)n3)s2)CC1 | 104
CCn1c(=O)n(CC)c2cc(S(=O)(=O)N3CCc4ccccc43)ccc21 | 93
Cc1oc(C(=O)O)cc1COc1ccc2c(C)c(Cc3ccccc3)c(=O)oc2c1C | 94
CCOc1ccc(N=c2scc(-c3ccc(S(=O)(=O)N(CC)CC)cc3)n2CCCO)cc1 | 101
CC1=C(C(=O)O)SCCO1 | 98
COc1ccc(C(=O)NC(C)C(c2cccs2)N2CCN(c3ccccc3F)CC2)cc1OC (centres undefined) | 105
O=C(OCC(=O)N1CCCCCC1)c1c(Cl)cccc1Cl | 101
O=C(O)CSC12CC3CC(CC(C3)C1)C2 | 99
COc1cccc(C(=O)NC2CC(C)(C)NC(C)(C)C2)c1 | 96

Reformatted: four of the compounds above.
compound: COc1ccc(C(=O)NC(C)C(c2cccs2)N2CCN(c3ccccc3F)CC2)cc1OC (centres undefined)
  VACV E9 pol inh: 105
compound: O=C(OCC(=O)N1CCCCCC1)c1c(Cl)cccc1Cl
  VACV E9 pol inh: 101
compound: O=C(O)CSC12CC3CC(CC(C3)C1)C2
  VACV E9 pol inh: 99
compound: COc1cccc(C(=O)NC2CC(C)(C)NC(C)(C)C2)c1
  VACV E9 pol inh: 96

The list goes on:
SMILES | VACV E9 pol inh
O=C(Oc1ccccc1)c1cc2ccccc2oc1=O | 101
Cc1c(N(C)C)c(=O)n(-c2ccccc2)n1C | 100
COc1ccccc1NC(=O)COc1nsnc1N1CCOCC1 | 97
Cc1cc(NC(=O)CSc2cn(Cc3ccc(F)cc3)c3ccccc23)no1 | 95
CC[n+]1cccc(-c2nc3ccccc3o2)c1 | 100
COc1ccc(NC(=S)NC(C)(C)C)cc1OC | 106
NNC(=O)c1ccc(CN2CCCCC2)o1 | 89
CC(Oc1ccc(Cl)cc1Cl)C(=O)NCCC1=CCCCC1 (centres undefined) | 98
O=C(COc1ccc(Cl)cc1)N1CCNCC1 | 100
CC1Cc2cc(S(=O)(=O)NCC3CCC(C(=O)Nc4ccccc4)CC3)ccc2N1C(=O)C1CC1 (centres undefined) | 97
Cc1cc2ccccn2c1CCC#N | 105
Fc1ccc(C2CN3C(=N2)C=Cc2ccccc23)cc1 (centres undefined) | 103
Cc1nc2ccccc2nc1CSc1nnc(Cc2ccccc2)n1-c1ccccc1 | 100
Nc1ccc2oc(=O)c(-c3ccccc3)cc2c1 | 100
CCN(C(=O)CSc1nc2ccccc2c2nc3ccccc3n12)c1cccc(C)c1 | 100
CC(=O)Nc1nc(C)cc2c1c(=O)oc1ccccc12 | 100
Cc1ccc(N(C(=O)c2ccc(Cl)cc2)C2C=CS(=O)(=O)C2)cc1 (centres undefined) | 100
Cc1cccc(Oc2coc3cc(OC(=O)c4cccs4)ccc3c2=O)c1 | 100
CC(NC(=O)CCCn1c(=O)c2cccn2c2ccccc21)c1ccccc1 (centres undefined) | 102
Cc1nn(-c2ccccc2)c2c1C1C(=C(N)S2)C(=O)Oc2ccccc21 (centres undefined) | 100
CCOC(=O)N1CCC(NC(=O)c2ccc(NC(=O)C3CCCO3)cc2)CC1 (centres undefined) | 100
O=C(NCc1ccccc1)C1C2C=CC3(CN(Cc4cccnc4)C(=O)C13)O2 (centres undefined) | 98
O=C(NO)C12CCCC(CCC1)C2 | 101
Cc1cccc(-n2ncc3ccccc3c2=O)c1 | 96
CCc1ccccc1NC(=S)N(CCc1ccncc1)C(C)C | 93
CCNc1nc(Cl)nc(NCC)n1 | 100
CC(=O)Nc1ccc(S(=O)(=O)NC2=NCN(C)CN2)cc1 | 100
COc1cccc(-c2nn(C)c3sc(C(=O)N4CCCCCC4)cc23)c1 | 99
COc1ccc(-c2cnn(-c3ccccc3)c2N)cc1OC | 100
CN1C(CC(=O)c2ccccc2)CCCC1CC(O)c1ccccc1 (centres undefined) | 100
Cc1cccc(-c2nnc(NC(=O)C(C)(C)C)s2)c1 | 101
O=C(O)CC1(CC(=O)Nc2ccccc2O)CCCC1 | 105
Cc1ccccc1C(=O)c1ccc2c(c1)n(C)c(=O)n2C | 98
CCOc1cc(CNn2cnnc2)cc(Cl)c1OCC(=O)NC(C)(C)C | 98
CCSC(=Nc1ccccc1)Nc1ccccc1 | 101
O=C(NCc1csc(-c2cccs2)n1)Nc1cccc(Cl)c1 | 98
COc1ccc(NC(=S)Nc2ccccc2)cc1 | 95
O=C(CCN1C(=O)COc2ccccc21)NCCN1CCc2ccccc2C1 | 107
O=C(O)CCCn1c2ccccc2c2cn[nH]c(=O)c21 | 92
CCN(CC)C(=O)c1cn(C)c(=O)c2cc(OC)c(OC)cc12 | 93
COc1cc2c(cc1OC)C(C)N(C(=O)c1cc3c(Cl)nc4ccc(C)cc4c3s1)CC2 (centres undefined) | 102
CC(C)Cn1c(SCC(=O)c2ccc(Cl)cc2)nc2ccccc2c1=O | 100
COC(=O)C1CCN(C(=O)C(C)Oc2ccccc2)CC1 (centres undefined) | 101
COc1ccc(C(C)N(C)CCC(=O)O)cc1OC (centres undefined) | 96
CCOC(=O)N1CCN(C(=O)CCN2C(=O)/C(=C/C=C/c3ccccc3)SC2=S)CC1 | 100
Cc1ccc(S(=O)(=O)N(C)Cc2nc(-c3ccc(Cl)cc3)no2)cc1 | 110
CN(C)CCNC(=O)Cn1ncc2c(Cl)cccc21 | 84
CN(C(=O)COc1cccc(Br)c1)c1ccccc1 | 106
O=C(O)CCC(=O)c1ccc2c(c1)CCC2 | 104
COc1ccc(-c2cnn3c(Cl)c(CCCl)c(C)nc23)cc1OC | 109

Next section
SMILES | VACV E9 pol inh
CCC1CCCCN1CCCNC(=O)c1cc2c(s1)CSC2 (centres undefined) | 102
CC(C)(C)S(=O)(=O)Cc1nc(-c2cccc(F)c2)cs1 | 100
Cc1ccc(CSc2ncccc2C(F)(F)F)cc1 | 100
O=C1CSc2ccc(C(=O)NCCCN3CCCCC3)cc2N1 | 107
O=C1NC(=O)/C(=C\c2ccccc2)N1 | 100
COc1ccc(CCNC(=O)CSCc2ccc(Cl)cc2)cc1OC | 100
O=C(c1ccc(CSc2ncccn2)cc1)N1CCOCC1 | 99
c1ccc(CSCc2cn3ccsc3n2)cc1 | 91
CCn1c(SCC(=O)NC2CCCC2)nnc1-c1c[nH]c2ccccc12 | 100
CCC(C)[C@@H](CO[C@@H](Cc1ccccc1)C(=O)N[C@@H](CCS(C)(=O)=O)C(=O)OC(C)C)NC[C@@H](N)CS (some centres undefined) | 100

Reprinted from the entries so far (10 entries):
SMILES | VACV E9 pol inh
COc1cccc(-c2nn(C)c3sc(C(=O)N4CCCCCC4)cc23)c1 | 99
COc1ccc(-c2cnn(-c3ccccc3)c2N)cc1OC | 100
CN1C(CC(=O)c2ccccc2)CCCC1CC(O)c1ccccc1 (centres undefined) | 100
Cc1cccc(-c2nnc(NC(=O)C(C)(C)C)s2)c1 | 101
O=C(O)CC1(CC(=O)Nc2ccccc2O)CCCC1 | 105
Cc1ccccc1C(=O)c1ccc2c(c1)n(C)c(=O)n2C | 98
CCOc1cc(CNn2cnnc2)cc(Cl)c1OCC(=O)NC(C)(C)C | 98
CCSC(=Nc1ccccc1)Nc1ccccc1 | 101
O=C(NCc1csc(-c2cccs2)n1)Nc1cccc(Cl)c1 | 98
COc1ccc(NC(=S)Nc2ccccc2)cc1 | 95

Next section.
SMILES | VACV E9 pol inh
COc1ccc(C2OC(=O)CC2C(=O)NC(C)C)cc1 (centres undefined) | 105
CCc1ccc(/C=C2\SC(=S)N(CCC(=O)NCCCN3CCOCC3)C2=O)cc1 | 99
Cc1ccccc1N=Cc1ccc(N(C)C)cc1 | 100
CC(C)Nc1nc(NC(C)C)nc(N(C)C(N)=O)n1 | 100
C=CCOc1ccc(Br)cc1/C=N/O | 109
Cc1nnc(NC(=O)CSc2cn(Cc3ccccc3)c3ccccc23)s1 | 92
CC1=CC(C)(C)N(S(=O)(=O)c2ccc(C)cc2)c2ccccc21 | 100
Cc1cc(N2Cc3ccccc3C2)ccc1/C=C1/C(=O)NC(=O)N(C2CCCCC2)C1=O | 100
O=c1cc(O)c2sc3nc(-c4cccnc4)c4c(c3c2[nH]1)CCCC4 | 101
CCC(=O)NCc1nc2ccccc2n1C | 101
CCCc1oc2c(cc(NS(=O)(=O)c3ccc(CC)cc3)c3ccccc32)c1C(=O)OCC | 99
CCCS(=O)(=O)C1=C(N)OC(c2ccccc2)=C(C#N)C1c1ccc(Cl)cc1 (centres undefined) | 75
Oc1cc(OCc2cccc(C(F)(F)F)c2)ccc1-c1ccn[nH]1 | 102
Cc1nn(Cc2nc(C(C)(C)C)cs2)c(C)c1Br | 109
